# GIV Gai3 FP: inhibitors of GIV peptide binding to Galpha-i3, primary screen, biochemical, fluorescence polarization, FITC-GIV GBA peptide, rat Galphai3; 90 min; stronger effect = lower value; scaled: aluminum fluoride 0%, vehicle 100%; percent of control (FP), % (concentration not given with the values); actives 0.42% (n = 210,000); AID 1224905, 2016;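 active = replicate mean at 85% of control or lower, very high polarization wells dropped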;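 also: wells of about 15 µL received 100 nL stock; the first replicate is given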
# Target sequence (P08753 whole entry, looked up): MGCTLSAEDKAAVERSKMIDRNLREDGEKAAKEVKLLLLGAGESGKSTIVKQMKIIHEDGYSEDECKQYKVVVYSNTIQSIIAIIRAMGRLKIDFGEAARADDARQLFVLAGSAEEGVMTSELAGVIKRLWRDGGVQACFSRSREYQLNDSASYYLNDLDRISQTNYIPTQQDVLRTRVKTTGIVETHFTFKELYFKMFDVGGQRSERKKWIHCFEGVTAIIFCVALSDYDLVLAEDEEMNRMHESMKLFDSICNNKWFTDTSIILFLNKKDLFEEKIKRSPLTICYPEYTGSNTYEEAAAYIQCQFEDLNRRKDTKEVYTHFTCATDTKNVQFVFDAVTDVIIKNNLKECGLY
# Sa growth 42C: S. aureus growth inhibition at 42 and 30 °C, primary screen, LtaS inhibitor project, RN4220, two temperatures. OD600, 20 h, 42 °C; stronger effect = lower value. relative growth, % (test concentration not listed). actives 0.53% (n = 170,000). AID 720641, 2013;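 active = growth at 42 °C up to 50% and 20 or more points under that at 30 °C, or under 10% at both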;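 also: 300 nL library stock went into each well; scaled to the means of positive and negative controls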
# HCMV NEC inh: inhibitors of HCMV UL50-UL53 interaction, biochemical, HTRF; AID 1918969, 2023; normalized percent inhibition; actives 0.15% (n = 190,000); HCMV UL50-UL53 nuclear egress complex (human cytomegalovirus); inhibition, % (concentration not given with the values);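 active = both replicates at 50% or more, plus weaker picks with an unusually low signal ratio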;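 also: stock transfer was 100 nL into about 20 µL; 0% = negative control wells and 100% = wells with untagged competitor protein; inactives centre near -12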
# Sa growth 42C second temp: recorded beside Sa growth 42C, whose call it bears; relative growth, %; measured here: growth at 30 °C;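 optical density after 20 h as mean of two plates; 100% = untreated growth and lower means inhibition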
# * = called active by the depositor; · = no result given.
SMILES,GIV Gai3 FP,Sa growth 42C,Sa growth 42C second temp,HCMV NEC inh
Cc1cc(NC(=O)c2cc(-c3ccccn3)nc3ccccc23)no1,105,·,·,-29
CCC1=NN(C(=O)c2cccc(OC)c2)C(O)(c2ccc(Br)cc2)C1 (stereo not drawn),114,·,·,-1
O=C(NCCc1ccccc1)Oc1ccc(Cl)cc1,102,113,86,-11
COc1ccc(-c2oc3ncn4nc(COc5cccc(C)c5C)nc4c3c2-c2ccc(OC)cc2)cc1,102,98,94,-8
CCOC(=O)C1=C(C)NC(SCC(=O)N2CCOCC2)=C(C#N)C1c1ccco1 (stereo not drawn),·,109,96,8
Cc1c(Cc2ccc3c(c2)OCO3)sc(NC(=O)c2ccco2)c1C(N)=O,105,91,85,-13
CCN(CC)P(=O)(c1nc2ccccc2n1CC)N(CC)CC,·,105,98,0
CC(=O)c1sc2c(c1C)c(=O)n(-c1ccc(Cl)cc1)c(=O)n2Cc1ccc(Cl)cc1,104,97,94,-5
CCOC(=O)NC(=O)c1cn(Cc2ccco2)c(=O)n(Cc2ccccc2)c1=O,108,104,87,-14
CC(C)NC(=O)c1sc2c(c1C(=O)Nc1cccnc1)CCCC2,·,99,90,-10
Cc1ccc(OCC(=O)N(Cc2ccco2)Cc2ccco2)cc1C,101,101,77,-32
CN1CCC(N(C)Cc2csc(-c3ccc(Cl)cc3)n2)CC1,·,-0.3*,-0.4*,-34
CCNC(=O)CN1C(=O)C2CCCCN2c2ccc(S(=O)(=O)N(CC)CC)cc21 (stereo not drawn),103,·,·,-7
CCN(CC)S(=O)(=O)c1ccc(NC(=O)NCc2noc3ccc(C)cc23)cc1,114,104,89,·
COc1ccc(Cc2nc3ccc(C(=O)NCc4ccc(OC)cc4OC)cc3o2)cc1,98,95,90,·
CCOC(=O)C(=NCC1CCCO1)NNc1cc(Cl)ccc1Cl (stereo not drawn),·,111,106,-7
CCn1c(C)nc2c1C(=O)c1ccccc1C2=O,102,75,34,-186
O=C(O)CCCC(=O)Nc1ccc(Cl)cc1,·,99,90,-10
O=C(CC(C(=O)c1cccnc1)c1cccs1)c1ccc(Cl)cc1 (stereo not drawn),96,123,83,-4
CCC(C(=O)N1CCN(c2cccc(Cl)c2)CC1)c1ccccc1 (stereo not drawn),104,74,48,-18
O=C(COC(=O)Cc1ccccc1)NC1CCCc2ccccc21 (stereo not drawn),·,116,93,-31
COc1ccc2c(c1)c1c(c(=O)n(-c3cccc(Cl)c3)c(=O)n1C)n2C,107,115,91,·
O=C(Nc1ccc(F)c(Cl)c1)c1cnc2sc3c(n2c1=O)CCCC3,106,·,·,-7
COc1ccc(CN2C(=O)C3CCCCC3C2=O)cc1S(=O)(=O)N1CCCC1 (stereo not drawn),103,·,·,16
COc1cc(C(=O)Sc2ccc(Cl)cc2)cc(OC)c1OC,·,61,88,11

# The list continues.
SMILES,GIV Gai3 FP,Sa growth 42C,Sa growth 42C second temp,HCMV NEC inh
COc1ccccc1CCNC(=O)c1ccc(-c2nc(CSc3ccc(C)cc3)c(C)o2)cc1,107,111,101,·
COc1ccc(CNC(=O)c2ccc(N3CCCS3(=O)=O)cc2)cc1OC,96,·,·,-12
CCOc1ccc(CNC(=O)c2ccc3c(c2)nnn3C2CCCC2)cc1,106,84,85,·
COc1cc(C2NC(=O)N(C)C(C)=C2C(=O)OCCc2ccccc2)cc(Br)c1O (stereo not drawn),102,·,·,-13
COc1ccc(-c2noc(CN(C(C)=O)C3CCCCC3)n2)cc1,106,104,77,-14
CCOC(=O)c1ccccc1NC(=O)CCc1c(C)nc2c(c1C)c(=O)n(C)c(=O)n2C,97,112,90,5
Cn1cnnc1SCC(=O)C(C)(C)C,·,94,94,-14
COc1nc(-c2ccc(Cl)cc2)nc2ccccc12,101,103,84,-8
O=C(CNC(=O)c1ccccc1)NCc1ccco1,102,101,76,16
COc1ccc(-c2nc(=O)[nH]c(=O)[nH]2)cc1,·,109,86,-16
Cc1nn(-c2ccccc2)c(C)c1/C=C/C(=O)OCC(=O)N1CC(=O)Nc2ccccc21,·,115,66,-12
Cn1[nH]c(=O)c2ncccc2c1=O,105,113,91,-14
Cc1ccc(/C=N/N=C2\CC3CCC2(C)C3(C)C)o1 (stereo not drawn),·,97,89,-13
CCCCOc1ccc(OCCNC(=O)c2ncn[nH]2)cc1,105,111,79,-7
COCC(C)NCc1ccccc1C (stereo not drawn),104,76,107,14
O=S(=O)(c1ccc2nc(N3CCN(c4ccccc4)CC3)ccc2c1)N1CCCCC1,110,93,97,·
O=C(O)CSc1ncnc2scc(-c3ccc(Br)cc3)c12,158,82,61,·
COc1cccc2c(C)cc(=O)[nH]c12,·,104,87,-26
CC(C)CC(NS(=O)(=O)c1ccc2c(c1)oc(=O)n2C)C(=O)NCc1ccco1 (stereo not drawn),100,93,93,-10
CCOC(=O)c1cccc(NC(=O)CSc2nc3cc4ccccc4cc3[nH]2)c1,103,99,96,-31
O=C(Cn1cnc2c(oc3ccccc32)c1=O)N1CCCCCC1,101,82,75,·
CC(C)c1ccc(NC(=O)C2CCN(S(=O)(=O)c3cccc4nsnc34)CC2)cc1,102,107,93,-11
COc1ccc(CC(=O)NCC2COC3(CCCCC3)O2)cc1OC (stereo not drawn),100,81,83,-29
Cc1nc(Cl)c(N)c(Cl)n1,·,86,76,-26
CSc1sc(-c2ccn[nH]2)c(-c2cccs2)c1C#N,99,90,79,-18

# Some of these compounds in order of their number in Sa growth 42C second temp, falling:
compound	GIV Gai3 FP	Sa growth 42C second temp
CCOC(=O)c1ccccc1NC(=O)CCc1c(C)nc2c(c1C)c(=O)n(C)c(=O)n2C	97	90
COc1ccc(CC(=O)NCC2COC3(CCCCC3)O2)cc1OC (stereo not drawn)	100	83
CSc1sc(-c2ccn[nH]2)c(-c2cccs2)c1C#N	99	79

# Other records:
SMILES,GIV Gai3 FP,Sa growth 42C,Sa growth 42C second temp,HCMV NEC inh
O=C1c2ccccc2C(=O)N1CCN1CCN(CCN2C(=O)c3ccccc3C2=O)CC1,104,95,82,-10
COc1ccccc1CNC(=O)c1cc2c(s1)-c1ccc(Cl)cc1SC2,99,109,84,-19
COCCOC(=O)Cn1nnc2sc(-c3ccccc3)cc2c1=O,105,94,84,-57
CCOC(=O)C1=C(CSc2nc3cc(C(=O)OCC)ccc3n2CC)NC(=O)NC1C (stereo not drawn),·,90,97,-12
Cc1noc2ncnc(N(CCO)c3ccccc3)c12,100,107,82,-27
COc1ccc(N2CCN(/C=C(\C#N)c3nc4ccccc4s3)CC2)cc1,-61*,136,112,5
Cc1ccc(C)c(N2CCN(C(=O)CCS(=O)(=O)c3cc4c(cc3Cl)NC(=O)CO4)CC2)c1,102,96,91,·
CCc1ccc(CNC(=O)CN2C(=O)CSc3ccc(S(=O)(=O)N4CCOCC4)cc32)cc1,103,110,86,·
CC1=C(C(=O)OC2CC(C(C)C)CCC2C)C(CC(=O)O)C(=O)N1 (stereo not drawn),96,114,88,2
Cc1c(Cl)cccc1NC(=O)c1cc(-c2cccc(Cl)c2)on1,99,108,96,-11
O=C(Nc1cccc(-c2nc3ccccc3s2)c1)c1ncn[nH]1,100,89,76,-11
COc1ccc(-c2nc(-c3ccc4c(c3)[nH]c(=O)c(=O)n4C)no2)cc1,103,·,·,16
Fc1ccc(N2CCN(c3ncc4c(n3)CCNC4)CC2)cc1,103,104,96,-5
CC(c1cccs1)N(C(=O)Nc1ccccc1)C1CCCCC1 (stereo not drawn),103,126,89,·
COc1ccccc1C(=O)OCc1cc(=O)n2c(C)csc2n1,101,87,87,·
Cc1nc2cc(-c3ccccc3)nn2c(C)c1CCC(=O)NCCCc1ccccc1,102,115,91,-3
c1ccc(-c2cc(NCc3ccccn3)n3ncc(-c4ccccc4)c3n2)cc1,110,·,·,-24
O=C(O)CSC1CC(=O)N(c2ccccc2)C1=O (stereo not drawn),94,101,100,-3
C=C(C)CC1C(=O)N(S(=O)(=O)c2ccccc2Cl)N=C1C (stereo not drawn),100,117,87,6
Cc1ncc(-c2ccc(S(=O)(=O)N3CCCC3)cc2)o1,103,·,·,-24
COc1ccc(-c2nc(CSCC(=O)NCc3ccccc3Cl)c(C)o2)cc1OC,102,87,81,-14
O=c1c2ccccc2n2c(=O)n(Cc3ccccc3)nc2n1Cc1ccc(F)cc1,101,·,·,-30
O=C(CSc1nnc(-c2ccco2)o1)OCc1cc(=O)n2c(n1)sc1ccccc12,·,84,90,18
Cc1nnc(SCC(=O)O)[nH]c1=O,100,86,88,·
COc1cc(NC(=O)C2CCN(S(=O)(=O)c3c(C)noc3/C=C/c3ccccc3F)CC2)cc(OC)c1OC,106,92,91,·

# As a working copy, part of the list above.
SMILES,GIV Gai3 FP,Sa growth 42C,Sa growth 42C second temp,HCMV NEC inh
Fc1ccc(N2CCN(c3ncc4c(n3)CCNC4)CC2)cc1,103,104,96,-5
CC(c1cccs1)N(C(=O)Nc1ccccc1)C1CCCCC1 (stereo not drawn),103,126,89,·
COc1ccccc1C(=O)OCc1cc(=O)n2c(C)csc2n1,101,87,87,·
Cc1nc2cc(-c3ccccc3)nn2c(C)c1CCC(=O)NCCCc1ccccc1,102,115,91,-3
c1ccc(-c2cc(NCc3ccccn3)n3ncc(-c4ccccc4)c3n2)cc1,110,·,·,-24
O=C(O)CSC1CC(=O)N(c2ccccc2)C1=O (stereo not drawn),94,101,100,-3
C=C(C)CC1C(=O)N(S(=O)(=O)c2ccccc2Cl)N=C1C (stereo not drawn),100,117,87,6
Cc1ncc(-c2ccc(S(=O)(=O)N3CCCC3)cc2)o1,103,·,·,-24
COc1ccc(-c2nc(CSCC(=O)NCc3ccccc3Cl)c(C)o2)cc1OC,102,87,81,-14
O=c1c2ccccc2n2c(=O)n(Cc3ccccc3)nc2n1Cc1ccc(F)cc1,101,·,·,-30
O=C(CSc1nnc(-c2ccco2)o1)OCc1cc(=O)n2c(n1)sc1ccccc12,·,84,90,18
Cc1nnc(SCC(=O)O)[nH]c1=O,100,86,88,·
COc1cc(NC(=O)C2CCN(S(=O)(=O)c3c(C)noc3/C=C/c3ccccc3F)CC2)cc(OC)c1OC,106,92,91,·

# Carrying on:
SMILES,GIV Gai3 FP,Sa growth 42C,Sa growth 42C second temp,HCMV NEC inh
COc1ccccc1-n1ccn(CC#N)c(=O)c1=O,100,95,96,-3
CC(C)(C)NC(=O)CN1CCN(C(=O)CN2CCc3ccccc32)CC1,·,83,91,1
CCOC(=O)N1CCN(c2ccc(NCc3cc4ccc(OC)cc4[nH]c3=O)cc2)CC1,111,98,91,0
CC1Sc2ccc(C(=O)N=c3sc4ccccc4n3C)cc2NC1=O (stereo not drawn),·,88,90,18
CC1CCc2sc(NC(=O)C(Cc3ccccc3)Cc3ccccc3)c(C#N)c2C1 (stereo not drawn),104,87,79,·
CC(SC#N)C(=O)C12CC3CC(CC(C3)C1)C2 (stereo not drawn),114,78,38,-6
O=C(O)CSCC(=O)Nc1ccccc1N1CCCCC1,98,98,97,5
COc1cc(-c2ccc(/C=C3\SC(NC(C)=O)=NC3=O)o2)c(OC)cc1Cl,160,·,·,-31
Cc1noc(/C=C/N(C)C)c1S(=O)(=O)N(CCc1ccccc1)Cc1ccccc1,100,75,91,10
O=C(Cn1ncc2c1-c1ccoc1CC2)NCc1ccccc1Cl,102,89,80,-27
CC(=O)Nc1ccc(/C=C/c2noc(-c3ccccc3O)n2)cc1,104,109,92,-20
Cc1cc2ncn(Cc3ccccc3C)c2cc1C,101,67,24,·
CC(C)CN(CCCNC(=O)Cn1ncc2c3ccccc3n(C)c2c1=O)CC(C)C,106,94,85,-32
CCOc1ccc(S(=O)(=O)c2c(C(=O)c3ccc(C)cc3)cnc3cc4c(cc23)OCCO4)cc1,99,·,·,-24
CCc1cccc2c(/C=C3/C(=O)N(C)c4ccccc43)cn(CC(=O)NC3CCCC3)c12,80*,100,90,·
Cc1ccc(C)c(NC(=O)Cn2c(=O)n(CCC(C)C)c(=O)c3cccnc32)c1,106,90,89,6
O=C1OCCC1Sc1ncnc2c1cnn2-c1ccccc1 (stereo not drawn),·,95,82,-7
Cc1ccc(C)c(-n2c(-c3ccc(Cl)cc3)cn3c4c(=O)n(C)c(=O)n(C)c4nc23)c1,106,·,·,-25
Cc1c(Cl)cccc1NC(=O)c1cccnc1Cl,100,89,87,·
O=C1N2c3ccccc3Sc3cccc(c32)C1(O)C(F)(F)F (stereo not drawn),104,·,·,6
CCc1cccc(C)c1NC(=O)C(CC)Sc1nncn2c1cc1occc12 (stereo not drawn),106,86,98,·
CCC(Sc1nc2ncccc2o1)C(=O)Nc1ccc2c(c1)OCCO2 (stereo not drawn),98,·,·,-24
CCOc1ccccc1C(=O)Nc1cc2c(cc1SC1CCCCC1)n(C)c(=O)n2C,105,·,·,-36
CCOc1ccc(C(=O)c2cn(CC(=O)Nc3cc(OC)cc(OC)c3)c3ccc(F)cc3c2=O)cc1,101,98,71,-8
Cc1cc(C(=O)NCCCN=C2NS(=O)(=O)c3ccccc32)c2ccccc2n1,113,·,·,0
O=C1c2[nH]nc(-c3ccc(F)cc3)c2C(c2ccccc2F)N1c1ccccc1 (stereo not drawn),102,110,91,-20
CC1CCCN(CC(O)CN)C1 (stereo not drawn),102,100,111,2
COC(=O)C(=C(C)C)c1ccc(N(C)C)cc1,104,94,92,-14
Cn1c(=N)n(CC(=O)O)c2ccccc21,98,92,88,4
CCC(C)NC(=O)c1[nH]c2cc(OC)ccc2c1Sc1ccc(C)cc1 (stereo not drawn),97,96,92,-5

# Screening results as filed in PubChem.

# The order is random; any-hit rate near 0.8%.
